Assay outcomes from PubChem.
VACV mCherry inh – inhibitors of vaccinia virus infection (mCherry reporter signal). Potency, µM (top dose mostly 36.5 µM), inactives show top-dose activity change, negative = inhibition, hits mostly inhibitors. AID 720579. Vaccinia virus mCherry reporter infection, fluorescence; about a quarter of the inactives have no number. 310,000 tested, 0.63% active; active = well fitted inhibition curve with a large enough effect; inconclusive = small, poorly fitted or top-dose-only effect; inactive = no such curve, though single readings can be large or run the other way; tested in A549 cells; further: nearly all actives have a fitted effect of over 35% in size; inactives centre near -10
VACV Venus inh – inhibitors of vaccinia virus (Venus reporter). Vaccinia virus Venus reporter expression, fluorescence. 330,000 tested, 0.46% active. Potency, µM (doses to about 36.5 µM), without a hit: at the top dose activity change, negative = inhibition, most hits filed as inhibitors; active means well fitted inhibition curve with a large enough effect; inconclusive means small, poorly fitted or top-dose-only effect; inactive means no such curve, though single readings can be large or run the other way; tested in A549 cells; further: nearly all actives have a fitted effect of over 30% in size; inactives centre near -10
* = called active by the depositor; i = inactive; ? = inconclusive; . = no result given; & = joins results of further samples; [ ] = another dose, or the depositor's remark. On the % scale 0 is the no-effect control and ±100 the full control effect; potency means the concentration at half of the fitted maximal effect.

Screens in order: VACV Venus inh, VACV mCherry inh
CCN(CC)C(=O)[C@H]1C[C@H](CC(=O)NCCCn2ccnc2)C(=O)N2CCc3c([nH]c4cc(CCC(=O)N(C)C)ccc34)[C@]12C
  -9%, i
O=C(Nc1ccc(F)c(Cl)c1)c1cc(C2CCCCN2C(=O)c2ccc3c(c2)CCO3)on1 (centres undefined)
  -12%, -15%
COc1ccc(/C=C/C(=O)OCC(=O)NC(=O)NC(C)(C)C)cc1
  -7%, -16%
CCn1cc(CNC(=O)/C=C/c2ccc([N+](=O)[O-])cc2)cn1
  0%, i
COc1cc(OC)c2c(-c3ccccc3)cc(=O)oc2c1C(CC(=O)N1CCCC1)c1ccc2c(c1)OCO2 (centres undefined)
  ?, -16%
CC(C)C[C@@H](CN1CCC[C@H]1CN1C(=O)C(=O)NC[C@@H]1Cc1ccccc1)N1C[C@H](Cc2ccccc2)N(CC2CCCCCC2)C(=O)C1=O
  ?, ?
O=C(OCC(=O)c1ccc[nH]1)c1ccc(S(=O)(=O)N2CCCCCC2)cc1
  ?, .
O=C(/C=C/c1c(Cl)nc2ccccn12)Nc1ccc(F)cc1
  -11%, i
Cc1ccc2nc(N(CCCN(C)C)C(=O)c3cc4ccccc4oc3=O)sc2c1
  -4%, -13%
Cc1ccc(/C=C/C(=O)NC2CCCCCCC2)o1
  -27%, -9%
COc1ccc(C(=O)OC(C)C(=O)NC2CCCCC2C)cc1S(=O)(=O)N1CCOCC1 (centres undefined)
  2%, -16%
O=C(CC(=O)c1ccncc1)c1ccccc1
  -16%, 0%
COc1ccc(C(=O)N[C@H](C(=O)OCC(=O)NC(=O)c2cccn2C)C(C)C)cc1
  -10%, -1%
COc1ccccc1NC(=S)NC(=O)Cc1ccccc1
  0%[7.34 µM], i[7.34 µM]
Cc1ccc(O)c(NC(=S)NC(=O)CC(C)C)c1
  ?, -15%
Cc1cc(C)n(CC(C)C(=O)O)n1 (centres undefined)
  -8%, i
CC(NC(=O)COC(=O)c1ccc2ccccc2n1)c1ccccc1 (centres undefined)
  -12%, -19%
CCOC(=O)c1c(-c2ccc(C)cc2)csc1NC(=O)c1cc(=O)c2ccc(C)cc2o1
  -19%, -15%
O=C(COC(=O)/C(=C/c1cccs1)c1cccs1)NC(c1ccccc1)c1ccccc1
  -20%, -4%
Cc1ccc2nc(-c3ccc(N4CCOCC4)cc3)c(Nc3ccccc3C)n2c1
  -17%, i
CCOc1cc(/C=C(\C#N)c2[nH]nc(N)c2C#N)ccc1O
  -29%, ?
CCOc1ccc(Oc2ccc(-c3nnc(-c4ccccc4)o3)cc2[N+](=O)[O-])cc1
  -4%, -18%
CC1CN(C(=O)CSc2nc(N)c(NC(=O)c3ccc(C(F)(F)F)cc3)c(=O)[nH]2)CC(C)O1 (centres undefined)
  -14%, -11%
COc1cc(NS(=O)(=O)c2ccc(NC(=S)NC(=O)c3sc4ccccc4c3Cl)cc2)nc(OC)n1
  -3%, i
Cc1ncc([N+](=O)[O-])n1Cc1ccc(F)cc1
  -8%, -7%
COc1cc(C2NC(=O)NC(C)=C2C(=O)OC2CCCCC2)cc(Cl)c1O (centres undefined)
  -18%, -27%
COC(=O)C1=C(Cn2cnc3ccccc32)NC(=O)NC1c1cc(C)ccc1C (centres undefined)
  -18%, -8%
Cc1cc(C)c(-n2c(SCc3nc4ccccc4s3)n[nH]c2=O)c(C)c1
  -27%, -27%
CC1CCCCN1CC(=O)Nc1ccc(Oc2ccccc2)cc1 (centres undefined)
  -12%, -20%
CCOC(=O)c1ccc2nc(C)c3c(c2c1)OC(C)C3 (centres undefined)
  -20%, .

The last four records of the part before lead into the next:
Screens in order: VACV Venus inh, VACV mCherry inh
COC(=O)C1=C(Cn2cnc3ccccc32)NC(=O)NC1c1cc(C)ccc1C (centres undefined)
  -18%, -8%
Cc1cc(C)c(-n2c(SCc3nc4ccccc4s3)n[nH]c2=O)c(C)c1
  -27%, -27%
CC1CCCCN1CC(=O)Nc1ccc(Oc2ccccc2)cc1 (centres undefined)
  -12%, -20%
CCOC(=O)c1ccc2nc(C)c3c(c2c1)OC(C)C3 (centres undefined)
  -20%, .
Cc1ccc2oc(-c3ccco3)cc(=O)c2c1
  -9%, -2%
CC(C)(C)c1ccc(C(=O)O/N=C(\N)Cc2cccs2)cc1
  -6%, i
Cc1cc(SCC(=O)Nc2nsc(-c3ccc(C(C)(C)C)cc3)n2)nc2ccccc12
  -5%[7.34 µM], -1%[7.34 µM]
O=C(c1ccco1)N1CCN(Cc2ccccc2F)CC1
  5%, i
CC1CCN(S(=O)(=O)c2ccc(NC(=O)CN3C(=O)NC(C)(c4ccccc4)C3=O)cc2)CC1 (centres undefined)
  -1%, -16%
COc1ccc(/C=N/NC(=O)Cn2c(Cc3ccc(OC)c(OC)c3)nc3ccccc32)cc1OC
  -2%, -6%
COc1ccc(Cc2nnc(N/N=C/c3ccc(N(C)C)cc3)[nH]c2=O)cc1OC
  -16%, i
Fc1cccc(NC(=S)N2CCCC2)c1
  -4%, i
O=C(COC(=O)c1ccc2c(=O)n3c(nc2c1)CCC3)Nc1ccc(OC(F)F)cc1
  -21%, -14%
Cc1ccc(Nc2nc(CSc3nnc(-c4cccnc4)n3-c3ccccc3F)cs2)cc1
  -13%, ?
COc1ccc(N2CCN(CCCNC(=O)C3CCC(CNc4nc(=S)[nH]c5ccccc45)CC3)CC2)cc1 (centres undefined)
  -9%, -5%
CS(=O)(=O)N1CCN(Cc2ccccc2C(F)(F)F)CC1
  -11%, -13%
Cc1ccc(Cn2c(CNS(=O)(=O)c3cccc([N+](=O)[O-])c3)nc3cccnc32)cc1
  -7%, -13%
COC(=O)CC(=O)CSc1nc2cc(C(=O)NC(C)C)ccc2c(=O)n1CCc1ccccc1
  -4%, 5%
Cc1cc(C)cc(NS(=O)(=O)c2ccc(NC(=S)NC(=O)c3cccs3)cc2)c1
  ?, ?
COc1ccc(C(=O)NC(=S)NNC(=O)c2ccco2)cc1
  4%, ?
COc1ccc(/C=N/NC(=O)Cn2nc(C)c([N+](=O)[O-])c2C)cc1
  0%, -2%
CN1CCN(CCNC(=O)c2ccc3nc(-c4ccc(F)cc4)c(-c4ccc(F)cc4)nc3c2)CC1
  ?, -26%
CC(CCc1ccc(O)cc1)NC1C2CC3CC(C2)CC1C3 (centres undefined)
  -9%, -17%
O=C(CSc1ccc2nnc(-c3cccnc3)n2n1)Nc1ccc(F)cc1
  -17%, -13%
CCCNC(=O)C1(C)CCCN(C(=O)c2cc(C(C)(C)C)nn2C)C1 (centres undefined)
  6%, 2%
Clc1ccc(CSc2nnc(-c3sccc3-n3cccc3)o2)cc1
  -18%, .
O=C(Nc1nccs1)C1CCN(S(=O)(=O)c2ccccc2)CC1
  -16%, i
CN(C)S(=O)(=O)N1CCC(N2CCN(Cc3ccc(F)cc3)C(=O)C2=O)CC1
  0%, -14%
COc1ccc(NC(=O)COC(=O)c2ccc(Br)o2)cc1OC
  -1%, -17%
CCc1nccn1S(=O)(=O)c1ccc(OC)c(OC)c1
  -5%, i
CCc1nn(CCCC(=O)N2CCN(c3cccc(OC)c3)CC2)c(=O)c2cc3occc3n12
  -12%, -8%
C#CCN1C=CC(=O)[C@@H](OC(=O)Nc2ccccc2Br)[C@H]1c1ccccc1Br
  ?, ?
O=C1NC(CCO)C(=O)NC1CCO (centres undefined)
  -4%, i
Cc1ccc(CNC(=O)COc2ccc3c(c2)CCC3)cc1
  -7%, i
O=C(CN1CCN(c2ccccn2)CC1)Nc1ccc(F)c(F)c1
  -8%, -7%
Cc1cccc(NC(=O)COC(=O)c2c(-c3ccccc3)noc2C)c1
  -18%, i
COC(=O)C1=C(c2c(C)noc2C)C[C@@H]2CC[C@H]1N2C(=O)NCCOc1ccc(OC)cc1
  -2%, -16%
CNC(=O)C(=O)N1CCC2(CC1)OCCN2S(=O)(=O)c1ccc(C)cc1
  -1%, i
CC1=C(C)CC2(CC1)C(=O)NC(=O)NC2=O
  -2%, i
O=C(Cc1ccc(Cl)cc1)Nc1ccc(Cl)cn1
  7%, 7%
COc1ccccc1N1CCN(C(=O)C2CCN(S(=O)(=O)c3c(C)noc3/C=C/c3ccc(C)cc3)CC2)CC1
  -11%, -9%
CCCNC(=O)[C@H]1N2C(=O)c3c(ccc(OC)c3OC)C2SC1(C)C (some centres undefined)
  -14%, i
CCOc1ccc2nc(NC(=O)CS(=O)(=O)c3ccccc3)sc2c1
  -16%, .
O=C(O)c1cc(N/N=C/c2ccc3c(c2)OCO3)ccc1Cl
  -8%, -17%
COc1ccc(-n2c(-c3ccc(Br)cc3)c[n+]3c2CCCCC3)cc1
  -17%, -11%
CNS(=O)(=O)c1cn(CC(=O)N2CCN(c3ccccc3OC)CC2)cc1S(=O)(=O)NC
  -9%, -12%
CCOc1ncccc1C(=O)N1CCN(c2cc(Cl)ccc2C)CC1
  -27%, ?
COc1ccccc1-c1sc2cc3c(cc2c1C#CC1(O)CCCCC1)OCO3
  -21%, i
Cn1cc(-c2coc3c(C(=O)NCc4cccnc4)cccc23)cn1
  -13%, i
CN(Cc1nccn1C)C(=O)C1CCC(=O)N(Cc2cccc(C(F)(F)F)c2)C1 (centres undefined)
  -4%, -19%
CC(=O)c1ccc(OC(C)C(=O)NC2CCCCC2C)cc1 (centres undefined)
  1%, -11%
CC(O)(c1cccc(F)c1)c1nc(-c2cccc(C(=O)O)c2)cs1 (centres undefined)
  -8%, 0%
CCOC(=O)c1c(C)[nH]c(C(=O)C(C)OC(=O)c2oc3ccccc3c2COC)c1C (centres undefined)
  -21%, .
COc1ccc(NC(=O)C2Cc3cc(S(=O)(=O)N4CCCCC4)ccc3N2C(C)=O)cc1Cl (centres undefined)
  -22%, -26%
CN(C)S(=O)(=O)c1cccc(-c2nnc(SCC(=O)NCCCCCC(=O)O)n2-c2ccc(F)cc2)c1
  -20%, -7%
Cc1[nH]c2ccccc2c1Cc1nnc(SCC(=O)NCc2ccco2)o1
  6%, 5%
COc1ccc(CCn2c(=N)c(C(=O)NC3CCCC3)cc3c(=O)n4ccccc4nc32)cc1
  -10%, -19%
COc1ccc(N(CC(=O)NC2CCCCC2)C(=O)CNC(=O)c2cccs2)cc1
  -4%, -3%
CC1(Cc2ccccc2OC(F)(F)F)C(=O)Nc2ccc(OC(F)(F)F)cc21 (centres undefined)
  -21%, -3%
Cc1nc2c(-c3ccccc3)c(C)[nH]n2c(=O)c1Cc1ccccc1
  -23%, ?
C=CCc1ccccc1OCCNCc1ccccc1
  -8%, -17%
CC1(C)OC2OC3C(CNCCO)OC(c4ccccc4)OC3C2O1 (centres undefined)
  -4%, i
C#CCn1c(S(=O)(=O)Cc2ccc(OC)cc2)nc(-c2ccccc2)c1-c1ccccc1
  -15%, ?
COCCCNC(=O)CCn1c(=O)c2ccccc2n(CC(=O)Nc2ccccc2C)c1=O
  0%, .

Next results follow:
Screens in order: VACV Venus inh, VACV mCherry inh
CC(=O)N1CCc2c(sc3c2c(=O)n(-c2ccc(C)cc2)c(=O)n3Cc2c(F)cccc2Cl)C1
  -23%, -29%
COC(=O)c1ccc(C)c(NC(=O)c2ccc(Cl)c([N+](=O)[O-])c2)c1
  -10%, -17%
O=C(COC(=O)c1ccc(Cl)nc1)Nc1ccccc1OC(F)F
  6%, 1%
CCCNC(=S)N1CC2(C)CN(C(=O)C(=O)OC)CC(C)(C1)C2=O
  -5%, i
COc1ccc(CNC(=O)CCc2c(C)nc3c(c2C)c(=O)n(C)c(=O)n3C)cc1
  -6%, -8%
Fc1ccc(-c2noc3ncnc(NCC4CCN(Cc5ccc(Cl)cc5)CC4)c23)cc1
  -16%, -21%
COc1ccccc1OCCn1c(NC(=O)c2ccccc2)nc2ccccc21
  ?, ?
CC1(C)CC(=O)C(C=NCCN2CCN(C(=O)NC34CC5CC(CC(C5)C3)C4)CC2)=C(O)C1
  -18%, ?
COCc1cc(C)n(CC(=O)Nc2ccc(Cl)cc2Cl)c(=O)c1C#N
  8%, 1%
O=C(NC1CCCCCC1)c1ccc2c(=O)n3c(nc2c1)CCCCC3
  -22%, .
CCc1ccccc1NC(=O)C1CCN(c2nn3c(=O)cc(C)nc3s2)CC1
  -15%, 0%
Cc1csc(NC(=O)Cc2ccc(Cl)cc2)n1
  16%, 8%
COc1ccccc1NC(=S)NCc1ccc2c(c1)OCO2
  -7%, i
CCOC(=O)CN1C(=O)N(CC(=O)OCC)C(c2ccccc2)(c2ccccc2)C1=O
  -10%, i
CCCOC(=O)c1c(N)sc(C(=O)OCC)c1C
  ?, ?
CC1CCCN(CCCNC(=O)c2cn(C)c3ccc(S(=O)(=O)N(C)C4CCCCC4)cc3c2=O)C1 (centres undefined)
  -9%&-4%, -2%&-9%
CCOC(=O)N1CCN(C(=S)Nc2ccc(C)c(C)c2)CC1
  -15%, -14%
CCN(CC)C(=O)c1ccc(NC(=O)CCn2nc(-c3ccc(Cl)cc3)c3ccccc3c2=O)cc1
  ?, ?
Cc1cccc(-c2cnc(C(O)c3ccc(-c4ccccc4)cc3)[nH]2)c1 (centres undefined)
  -5%, 18%

Hits appear at their usual frequency; any-hit rate near 0.82%.
